# HCMV UL50-53 inh – inhibitors of HCMV UL50-UL53 nuclear egress complex interaction; HTRF UL50-UL53 interaction, normalized percent inhibition; inhibition, % (concentration not given with the values); 190,000 compounds, 0.15% hits;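 active means both replicates at 50% or more, plus weaker picks with an unusually low signal ratio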;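 further: stock transfer was 100 nL into about 20 µL; 0% = negative control wells and 100% = wells with untagged competitor protein; inactives centre near -12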
# * hit, by the source's call; & = joins results of further samples.
SMILES,HCMV UL50-53 inh
C=CC1=C(C(=O)O)N2C(=O)C(NC(=O)C(=NOCC(=O)O)c3csc(N)n3)C2SC1 (stereo not drawn),94.9*
CCCCC[C@H](O)/C=C/[C@H]1[C@H](O)CC(=O)[C@H]1C/C=C\CCCC(=O)OC(C)C,-18.9&-18.9
Cc1ccc(-c2csc(NC(=O)c3cccs3)n2)cc1C,-20.3
COC(=O)/C=C/c1cc(O)ccc1O,-30.3
COC(=O)CCN1C(=O)/C(=C/c2ccccc2)SC1=S,-20.9
CCSc1nnc(NC(=O)CSc2ncccn2)s1,-16.1
COC(=O)c1sc2ccccc2c1NC(=O)C1CCCCC1,-16.0
Cc1nc(N)ncc1-c1nc(N2CCOCC2)c2sc(C(C)(C)O)cc2n1,-36.2&-27.7&-6.8
Cc1cc(C)c(S(=O)(=O)N2CCC(C(N)=O)CC2)c(C)c1,-9.8
CCC1CCCCN1Cc1c(O)cc(C)c2c1oc(=O)c1ccccc12 (stereo not drawn),-8.0
O=C(COc1ccccc1F)Nc1cc(C(F)(F)F)ccc1Cl,1.2
Cc1ccc(S(=O)(=O)C=CC#N)cc1,-20.0
CCCCN1C(=O)CCC(C(=O)O)C1c1ccccc1 (stereo not drawn),1.5
CC[N+](C)(CC)CCC[n+]1c(-c2ccccc2)c2cc(N)ccc2c2ccc(N)cc21,20.4&16.5
CCn1c(=NC(=O)c2ccc(S(=O)(=O)N(C)C)cc2)sc2cc(Cl)ccc21,9.8
O=C(Nc1c(-c2ccccc2)nc2ncccn12)c1ccc(Cl)cc1,-25.9
N#Cc1c(C(F)(F)F)cc(-c2cccs2)nc1Sc1ccccc1NC(=O)c1cccs1,-0.7
O=C(NCCOc1cccnc1)c1ccc2ncsc2c1,46.6&46.6
CNC1CCS(=O)(=O)C1 (stereo not drawn),-11.5
Brc1ccc(C2CN3CCSC3=N2)cc1 (stereo not drawn),-5.0
Cc1oc2ccc(OCc3cccc(F)c3)cc2c1C(=O)O,-4.9
Cc1nc(C#N)c(N(C)C)o1,3.2
CN(Cc1cccs1)C(=S)S,-25.2
CCS(=O)(=O)N1CCN=C1SCc1cccc(F)c1,-3.4&-6.3
COc1ccc(CN[C@@H]2CS(=O)(=O)C[C@H]2O)cc1OCc1ccc(F)cc1,-6.3

# Following part
SMILES,HCMV UL50-53 inh
Cc1cc(C)nc(SCc2csc(-c3ccccc3)n2)n1,-2.4
CCn1c(=NC(=O)CSCC(=O)N2CCCc3ccccc32)sc2ccccc21,-9.4
CCOC(=O)c1[nH]c2ccccc2c1NC(=O)c1ccccc1,-14.6
CCCCCCCCCCCCCCCCOC[C@@H](O)COP(=O)(O)O,-34.1&-34.1
Cc1cccc2ncn(C3CC(C)(C)NC(C)(C)C3)c(=O)c12,-21.7
Brc1c(-c2ccccc2)nc2ccccn12,3.1
CCn1cc(SCC(=O)N2CCOCC2)c2ccccc21,-16.6
COc1cccc(NS(=O)(=O)c2ccc(CN3C(=O)c4cccnc4C3=O)s2)c1,-1.1
O=C(CC1Sc2ccccc2NC1=O)NCc1ccccc1 (stereo not drawn),-14.6
Nc1ccc(C(=O)c2ccc3c(c2)OCCO3)cc1N,-1.6
COc1ccc(-c2cc(=O)c3ccccc3s2)cc1,-45.1
CC(C)N(C(=O)CSc1nnc(-c2ccccc2)o1)c1ccccc1,-18.2
CCOC(=O)c1coc2c(F)c(F)c(F)cc2c1=O,72.5
COc1ccc(COCC(O)CN2CCCCC2)cc1OC (stereo not drawn),-12.0
Nc1sc2c(c1C(=O)NCCc1ccccc1)CCC2,2.9
Cn1nc(C(=O)N2CCCCC2)c2c1CCC(NCC1(c3ccccc3)CCOCC1)C2 (stereo not drawn),-8.1
CCOc1ccc2nc(NC(=O)COc3ccccc3)sc2c1,-0.3
CC1OC(n2cc(F)c(=O)[nH]c2=O)C(O)C1O (stereo not drawn),-9.9
CCOc1ccc(S(=O)(=O)N2CCC(C)CC2)cc1,-1.3
CC(CCCC(C)(C)O)CCN1CCC(N(C)CCO)CC1 (stereo not drawn),-11.7
CS(=O)(=O)NC(=O)CCCCCCCCCC=C(Br)Br,14.2&14.2
O=C(NN=Cc1ccc([N+](=O)[O-])o1)c1ccc(O)cc1,-153.2
O=C1CSC(=NC(=O)C2CC2)N1,-24.1
Cc1cc(C)c(-c2csc(N)n2)c(C)c1,-29.9
O=C(Nc1ccc(S(=O)(=O)N2CCCCC2c2cccnc2)cc1)c1ccc(Cl)cc1 (stereo not drawn),5.7

# Following part:
SMILES,HCMV UL50-53 inh
O=C(c1c[nH]c2ccccc12)N1CCN(c2ccccc2)CC1,4.8
O=C(Nc1ccc2[nH]c3c(c2c1)CCCC3)c1cccs1,0.3
CN(CC=CC#CC(C)(C)C)Cc1cccc2ccccc12,1.4&14.0&-91.8
CCc1ccc2c(C)cc(=O)oc2c1,-2.8
O=C1CCCc2c1cc(-c1ccccc1)n2-c1cccnc1,-7.8
CCNC1=N[C@@H]2[C@@H](O)[C@H](O)[C@@H](CO)O[C@@H]2S1,-16.0&-16.0
CCC(=O)NC(C)c1nc2ccccc2n1Cc1ccccc1F (stereo not drawn),-0.9
COC(=O)NC(C)CNc1nccc(-c2cn(C(C)C)nc2-c2cc(Cl)cc(NS(C)(=O)=O)c2F)n1 (stereo not drawn),-0.4
Cc1ncc(CN2CCOCC2)c(N)n1,-7.1
CCCCCC(=O)N1CCC(n2cc(C3CCCCC3)nn2)CC1,-25.6
Nc1ncc(-c2cccnc2)nc1C(=O)c1cccnc1,-62.1
Cc1cccc(-n2ncc3c(NC(C)(C)C)ncnc32)c1,-16.8
CC1CCCN(CC(O)COCc2ccc3c(c2)OCO3)C1 (stereo not drawn),-1.1
Cc1nc(C(=O)N(Cc2cccnc2)Cc2ccc3c(c2)OCO3)cs1,3.2
Cc1nc2cc(CO)ccc2n1-c1ccccc1,-24.5
CCN1C(=O)c2cccc3c(N)ccc1c23,40.1
Cn1nc(C(=O)NCc2cccnc2)c2c1CCN(Cc1ccc3c(c1)Cc1ccccc1-3)C2,-1.6
Cn1c(O)c(/C=C2\C=Nc3ccccc32)sc1=S,-8.3
COc1cc(OC)c(-c2nnc3ccccn23)cc1OC,-26.3&-26.3
COc1cccc(/C=C2\SC(=S)N(CCCC(=O)NC(C)(C)C)C2=O)c1,-13.4
Oc1c(C(c2cccnc2)N2CCCC2)ccc2cccnc12 (stereo not drawn),-26.5
O=C(CC(C(=O)O)N1CCOCC1)Nc1ccc(Cl)cc1Cl (stereo not drawn),7.8
Cn1cnnc1SCC(=O)c1ccc(Cl)cc1,-1.0
COc1cc(N)c(Cl)cc1C(=O)OCCCN1CCCCC1,-0.8
CC(=O)c1ccc2c(c1)Sc1ccccc1N2CCCN1CCN(CCO)CC1,-67.9

# Another view of some results above.
canonical_smiles | HCMV UL50-53 inh
CCn1cc(SCC(=O)N2CCOCC2)c2ccccc21 | -16.6
COc1cccc(NS(=O)(=O)c2ccc(CN3C(=O)c4cccnc4C3=O)s2)c1 | -1.1
O=C(CC1Sc2ccccc2NC1=O)NCc1ccccc1 (stereo not drawn) | -14.6
Nc1ccc(C(=O)c2ccc3c(c2)OCCO3)cc1N | -1.6
COc1ccc(-c2cc(=O)c3ccccc3s2)cc1 | -45.1

# Additional records.
SMILES,HCMV UL50-53 inh
CS(=O)(=O)N1CCN=C1SCc1ccc(C(F)(F)F)cc1,1.1
Cc1ccc(N(C2C=CS(=O)(=O)C2)S(=O)(=O)c2ccccc2)cc1 (stereo not drawn),2.3
COc1cc(C(=O)NC2CCN(C)CC2)ccc1Nc1ncc2c(n1)N(C1CCCC1)C(C)CC(=O)N2C (stereo not drawn),-3.4&-2.4&-7.2&-3.0
CCC(=O)c1c[nH]c(C(=O)NCc2cccs2)c1,6.9
O=C1C=CC(=NS(=O)(=O)c2cccs2)C=C1,-10.9
CC(NC(=O)c1ccc(N(C)C)cc1)C(c1cccs1)N1CCN(C)CC1 (stereo not drawn),5.3
CCCC1CC(C(=O)NC(C(C)O)[C@@H]2OC(SC)C(O)C(O)C2O)N(C)C1 (stereo partly drawn),4.9
Fc1ccccc1-c1ncc2ccccn12,-57.8
CN(C)S(=O)(=O)c1ccc(C(=O)Nc2sc3c(c2C#N)CCC3)cc1,-16.8
CC1CN(CC(O)COCc2ccccc2)CC(C)O1 (stereo not drawn),1.3
CCCCC[C@H](O)/C=C/[C@H]1C(=O)C[C@H](O)[C@@H]1CCCCCCC(=O)O,-7.0&-7.0
O=C(/C=C/c1ccccc1)N1CCN(C(=O)/C=C/c2ccccc2)CC1,-1.5
O=C(O)CCC1CCC(c2cc(F)ccc2F)(S(=O)(=O)c2ccc(Cl)cc2)CC1 (stereo not drawn),0.4
Cc1cc(NCc2cccnc2)n2c(nc3ccccc32)c1C#N,-11.8
CC(C)C(CO)N(Cc1cccc(F)c1)c1nc(Nc2cccc(Cl)c2)c2ncn(C(C)C)c2n1 (stereo not drawn),-17.4
Cc1cccc2nc(CNc3ccc(I)cc3)cn12,-11.7
N#Cc1cnc(Nc2ccccc2)nc1,-10.8
O=C(CSc1nnc2sc3ccccc3n12)c1ccco1,-11.9
O=C(NOCC1CC1)c1ccc(F)c(F)c1Nc1ccc(I)cc1Cl,-5.9&-12.0&-14.3&-15.1&-12.9&-11.1&-24.8&-17.1
CN(C)C(=O)Nc1cccc(-c2ccc(N(C)C)cc2)c1,3.9
CN1CCN(Cc2cccc(-n3cccn3)c2)CC1CCO (stereo not drawn),-12.9&-12.9
Cc1ccc(/C=N/NC(=O)c2ccccc2Oc2ccccc2)o1,-1.8
Cc1nc(SCC(=O)Nc2cccc(C(F)(F)F)c2)c2cnn(-c3ccccc3)c2n1,-1.3
O=C(/C=C\c1cccs1)N1CCN(Cc2ccc3c(c2)OCO3)CC1,-7.7
COc1ccc(C2CC(=O)n3c(nc4ccccc43)S2)cc1 (stereo not drawn),-5.5

# Further records:
SMILES,HCMV UL50-53 inh
Cc1ccc(-c2nc3ncccc3o2)cc1NC(=O)c1ccc(F)cc1,5.3
CCn1cnc(NC(=O)N(C)Cc2cccc3ncccc23)n1,23.6&23.6
COC(=O)Cc1csc(N)n1,4.9
Cc1nnsc1C(=O)OCCN(C)c1ccc(C#N)cn1,-12.5
CCOC(=O)C1CCN(C(c2ccccn2)c2c(C)[nH]c3ccccc23)CC1 (stereo not drawn),9.5&5.5
Nc1cc(F)ccc1NC(=O)C=Cc1cnn(CC=Cc2ccccc2)c1,0.6
O=c1cc(-c2ccc3c(c2)OCCO3)oc2ccc(F)cc12,-16.7
Brc1cccc(-c2nnc3sc(CNCc4ccco4)cn23)c1,-2.9&-11.1
O=C(Nc1nc(-c2ccc(F)cc2)cs1)c1ccc(N2C(=O)CCC2=O)cc1,-5.3
C=C1C2(C(=O)N3CCC(c4ccccc4F)C3)CCC(C2)C1(C)C (stereo not drawn),7.4
COc1ccccc1-c1nnc(NC(=O)C(C)SC2=NCCS2)s1 (stereo not drawn),5.0
N#Cc1ccc(OC(=O)COc2ccc(Br)cc2)cc1,-8.5
COc1ccc(S(=O)(=O)Cc2ccccc2)cc1NC(C)=O,3.9
OCC1OC(O[C@]2(CCl)OC(CCl)C(O)C2O)C(O)C(O)C1Cl (stereo partly drawn),-16.9
CCC(C(=O)O)N1C(=O)/C(=C/c2ccccc2)SC1=S (stereo not drawn),-51.6
COC(=O)c1sc2nc3c(c(-c4ccc(Cl)cc4)c2c1N)CCC3,-1.9
COC(=O)CCc1nc2c(ccc3ccccc32)s1,1.3
O=C(N1CCOCC1)C12CC3CC(CC(C3)C1)C2,-29.9
CCCCCCCCCCCC1=C(O)C(=O)C=C(O)C1=O,-110.7&-167.1
COC(=O)c1cn(C(=O)c2cc(Br)ccc2Cl)nc1N,-3.1
COc1ccc(S(=O)(=O)Nc2nc(C(F)(F)F)cs2)cc1,-9.2
CN(C)C(CNC(=O)c1ccco1)c1cccnc1 (stereo not drawn),-11.1
CN1CCCN(C(=O)c2cccc(-c3ccc(C=C4C(=O)Nc5ccc(Cl)cc54)o3)c2)CC1,-90.3
O=C(N/C(=C/c1ccccc1)P(=O)(O)c1ccccc1)c1ccccc1,-7.8
O=C(CSc1oc(-c2cccs2)nc1S(=O)(=O)c1ccccc1)NC1CCCCC1,-7.1

# Taken from above.
# Under HCMV UL50-53 inh, CN1CCCN(C(=O)c2cccc(-c3ccc(C=C4C(=O)Nc5ccc(Cl)cc54)o3)c2)CC1 shows -90.3
# Under HCMV UL50-53 inh, C=C1C2(C(=O)N3CCC(c4ccccc4F)C3)CCC(C2)C1(C)C (stereo not drawn) shows 7.4

# 3 consecutive compounds already listed, quoted:
SMILES,HCMV UL50-53 inh
O=C(N1CCOCC1)C12CC3CC(CC(C3)C1)C2,-29.9
CCCCCCCCCCCC1=C(O)C(=O)C=C(O)C1=O,-110.7&-167.1
COC(=O)c1cn(C(=O)c2cc(Br)ccc2Cl)nc1N,-3.1

# Next part:
SMILES,HCMV UL50-53 inh
CC(C)CC(=O)Nc1nnc(SCc2ccccc2)s1,-5.1
CCN1C(=O)c2cccc3c(S(=O)(=O)NCc4ccccc4)ccc1c23,-39.8
CN(Cc1cscn1)C(=O)c1nn(CC2CC2)c2c1CN(C(=O)Cn1cnc3ccccc31)CC2,4.4
COC(=O)c1c(NC(C)=O)c2cc(NC3CCOCC3)cnc2n1CCc1ccc(OC)cc1,-12.6
Cc1ccc(Cn2nc(C(=O)Sc3cccc(Cl)c3Cl)cc2C)cc1,-5.9
O=C(O)CCNS(=O)(=O)c1cccc(C(F)(F)F)c1,3.8
CCOC(=O)c1c(NC(=O)CCN2CCOCC2)sc2c1CCC(C)C2 (stereo not drawn),-3.0
Clc1ccc(Cn2ncc3c(NCc4cccnc4)ncnc32)cc1,-3.6
CC(=O)Oc1ccc2c(=O)c(-c3nc4ccccc4n3C)coc2c1,-28.8
O=C(c1ccc(N2C(=O)CCC2=O)cc1)N1CCc2ccccc2C1,-9.9
Cc1ccc(-n2ncc3c(=O)[nH]c(SCc4ccccc4F)nc32)cc1,13.1
Cn1sc(=O)n(Cc2ccccc2)c1=O,-31.5
CN(C)c1ccc(C(=O)NCCCCCC(=O)NO)cc1,-2.9&-2.9
Cc1sc2ncnc(Nc3ccc(F)cc3)c2c1C,-8.1
CC(=O)Nc1sc2c(c1CN1CCc3ccccc3C1)CCCC2,-1.1&-2.7
COc1ccccc1N1CCN(Cc2c(O)ccc3ccccc23)CC1,-29.1
CCOC(=O)c1[nH]c(C)cc1C,-6.1
C=CCn1c(CNC(=O)c2cccc(C)c2)nc2ccccc21,-8.5

# Screening results deposited in PubChem by ICCB-Longwood Screening Facility, Harvard Medical School.

# A portion of the library; count on the stated rates, not on these rows.
